# E coli growth – E. coli growth inhibition, primary screen, OD600 | OD600 absorbance (no concentration beside the values) | 0.21% of 330,000 active | AID 1053175, 2014 | Escherichia coli growth, 23 h; active compounds read low;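 active = OD600 absorbance below the run mean of sample wells minus 3.6 SD, in any replicate, cut at about 0.56 in these data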;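 also: stock transfer was 300 nL into about 60 µL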
# Ecoli rRNA inh – reduced GFP signal of wild-type E. coli, primary screen, bacterial rRNA inhibitor project, GFP/RFP fluorescence, OD600, single point; GFP signal change (wild-type ribosome), % (concentration not given with the values); 1.6% of 350,000 active; E. coli WT GFP vs humanized-ribosome RFP mutants, 24 h; active compounds read low; DMSO median 0, no signal -100;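 active = significant combined selectivity score with lowered wild-type GFP, culture density cut under 30%, mutant RFP and density less affected; inactive = any of these conditions unmet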; also: one replicate is shown; some compounds called inactive have numbers as strong as hits
# FGF22 binding – binders of human FGF22 protein, primary screen, FGF22 synaptogenesis inhibitor project, biophysical, thermal shift, single point. Fibroblast growth factor 22 (Homo sapiens), Q9HCT0. recombinant FGF22 thermal shift, SYPRO orange fluorescence; percent of sucrose octasulfate shift, DMSO zero. calls only at 9.99 µM. 1.5% of 340,000 active;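 active = melting point raised past a set limit in the mean and every replicate; inconclusive = no clear call; three in four hits are not shown here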
# Target sequence (Q9HCT0 whole entry, looked up): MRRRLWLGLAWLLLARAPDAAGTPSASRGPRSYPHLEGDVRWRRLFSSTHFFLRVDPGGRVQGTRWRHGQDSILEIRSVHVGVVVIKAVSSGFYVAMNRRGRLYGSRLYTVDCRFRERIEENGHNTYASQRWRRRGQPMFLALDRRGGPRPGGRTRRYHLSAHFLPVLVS
# Vif A3G – inhibitors of Vif binding to APOBEC3G peptide, primary screen, biochemical, TR-FRET, GST-Vif 1-94, biotin-A3G peptide, dose response retest (AID 1117319); Virion infectivity factor (Human immunodeficiency virus type 1 group M subtype B (isolate …; inhibition, %; hits with a dose series show IC50 in µM; 0.57% of 260,000 active; TR-FRET GST-Vif / biotin-A3G peptide binding; higher % means a stronger effect; test concentration not given here; strong numbers were not always called active;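 active = above the screen mean plus three standard deviations and confirmed in dose response; inconclusive = results disagree or hit not tested in dose response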;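 also: Vif residues 1-94 fused to GST binding biotinylated APOBEC3G peptide 110-148; 0% = full assay without inhibitor and 100% = GST in place of GST-Vif; retest series ran down from 100 µM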
# AF4-AF9 inh – inhibitors of AF4 peptide binding to AF9, primary screen, biochemical, AlphaScreen, biotin-AF4 peptide, FLAG-AF9, single point; Protein AF-9 (Homo sapiens), P42568; inhibition, % at 10 µM; 0.47% of 350,000 active; AID 651704, 2012;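 active = every replicate reaching a set inhibition limit, whatever the replicate mean, cut at about 25% in these data; inconclusive = mean inhibition reaches that limit but some replicates miss it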;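 also: 0% = plate neutral control median and 100% = total signal loss; the record names both 10 and 1 µM as test concentration; the first replicate is given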
# HNF4A DNA FP – change in binding of human HNF4A to DNA, primary screen, biochemical, fluorescence polarization, FITC-DNA; 1 h; activity change, % at 10 µM; 0.3% of 360,000 active; AID 1224865, 2016; in the data active = activity change above about 30%, passing the limit was not always enough;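 also: controls were the assay level and a saturating level of protein; the project sought stronger binding though the title names inhibitors; some compounds called inactive have numbers as strong as hits; positive values seem to mean higher polarization but the record does not say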
# Target sequence (P41235 whole entry, looked up): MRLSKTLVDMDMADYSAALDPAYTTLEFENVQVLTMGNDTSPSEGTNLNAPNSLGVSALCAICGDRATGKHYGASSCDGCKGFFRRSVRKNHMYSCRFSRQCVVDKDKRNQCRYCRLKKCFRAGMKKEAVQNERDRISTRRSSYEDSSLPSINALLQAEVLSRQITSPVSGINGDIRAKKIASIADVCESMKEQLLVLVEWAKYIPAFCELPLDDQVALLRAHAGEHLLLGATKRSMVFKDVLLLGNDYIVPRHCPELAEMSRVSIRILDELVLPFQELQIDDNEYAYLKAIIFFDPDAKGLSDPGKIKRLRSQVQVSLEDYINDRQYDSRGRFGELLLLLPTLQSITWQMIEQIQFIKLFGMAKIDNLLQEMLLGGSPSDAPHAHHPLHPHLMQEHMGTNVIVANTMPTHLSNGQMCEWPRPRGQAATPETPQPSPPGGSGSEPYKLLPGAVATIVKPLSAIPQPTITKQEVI
# ALR H2O2 inh – inhibitors of human ALR sulfhydryl oxidase, primary screen, biochemical, H2O2 detection, HRP-luminol luminescence, single point | FAD-linked sulfhydryl oxidase ALR (Homo sapiens), P55789 | purified ALR, DTT oxidation | inhibition, % (concentration not given with the values) | 3.8% of 290,000 active;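 active = mean and each replicate at 75% or more; inconclusive = only one of the two met; inactive = neither met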;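 also: stock transfer was 7.5 nL into about 7.5 µL; 0% = neutral wells and 100% = wells with inactivated enzyme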
# Target sequence (P55789 whole entry, looked up): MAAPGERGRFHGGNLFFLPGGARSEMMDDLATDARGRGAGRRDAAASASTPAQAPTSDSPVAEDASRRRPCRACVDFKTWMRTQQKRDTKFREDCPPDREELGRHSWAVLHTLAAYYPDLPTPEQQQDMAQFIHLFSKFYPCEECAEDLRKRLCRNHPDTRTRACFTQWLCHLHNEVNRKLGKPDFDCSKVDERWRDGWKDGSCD
# Ecoli rRNA inh OD600 – further read-out of Ecoli rRNA inh, marked with its call; OD600 change, %; measured here: OD600 growth;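 optical density of the mix in the first replicate; 0 = DMSO median and -100 = no signal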
# Ecoli rRNA inh RFP – second read-out of Ecoli rRNA inh, no call of its own (marks repeat the call); RFP signal change, %; measured here: RFP humanized mutant strains;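 first replicate; 0 = DMSO median and -100 = no signal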
# Active calls of the source: *; i = inactive; ? = inconclusive; . = no result given; + = active, no number; & = joins results of further samples. These rows are one share of the data; the hit share may differ from the screen's.
SMILES,E coli growth,Ecoli rRNA inh,Ecoli rRNA inh OD600,Ecoli rRNA inh RFP,FGF22 binding,Vif A3G,AF4-AF9 inh,HNF4A DNA FP,ALR H2O2 inh
COC(=O)c1ccc(CN2CCC(CO)(Cc3ccccc3Cl)CC2)cc1,0.638,-19.2,-16.6,0.1,i,-7.5%,2.7,-2.7,-6.7
Cc1ccc(-n2nnnc2SCC(=O)c2cc(C)n(CC3CCCO3)c2C)cc1 (configuration not stated),0.666,.,.,.,.,-3.6%,.,0.4,-7.4
Cc1ccc(S(=O)(=O)N2CCCC2C(=O)OCc2ccco2)cc1 (configuration not stated),0.717,.,.,.,.,-2.4%,.,-7.8,7.3
Cc1ccc(S(=O)(=O)Nc2ccc3c(c2)CC(=O)N([C@@H](C)CO)C[C@H](C)[C@@H](CN(C)Cc2ccc4c(c2)OCO4)O3)cc1,.,-55.2,-71.1,-9.4,i,.,5.5,.,.
CCC(=O)Nc1cc(-c2nnc(OC)c3ccccc23)ccc1N1CCOCC1,0.733,.,.,.,.,7.8%,.,-1.1,-2.7
C/C(=C/CCC(C)(O)C1CC[C@@]2(C)[C@@H]3CC=C4[C@@H](CC[C@H](O[C@H]5O[C@@H](CO)[C@H](O)[C@@H](O)[C@@H]5O)C4(C)C)[C@]3(C)C(=O)C[C@]12C)CO[C@@H]1O[C@H](CO)[C@@H](O)[C@H](O)[C@H]1O (some centres not stated),.,-8.5,-5.0,11.6,i,.,-1.7,-0.8,3.2
CN1C(=O)c2ccccc2C(C(=O)NCCCN2CCCC2)C1c1c[nH]c2ccccc12 (configuration not stated),0.763,.,.,.,.,7.4%,.,-2.7,.
CN(C)S(=O)(=O)c1ccc(Cl)c(-c2nnc3n2CCCCC3)c1,0.646,10.4,2.3,-1.6,i,.,-1.5,-5.2,2.7
Cc1nonc1NC(=O)c1ccc(Cl)c(S(=O)(=O)N2CCCCC2)c1,0.716,.,.,.,.,10.5%,.,-3.7,-4.3
NNC(=O)c1nn(-c2ccccc2)cc1O,0.634,.,.,.,.,?,.,.,-1.2
COc1ccc(N2C(=O)CSC(c3ccccc3)C2=O)cc1 (configuration not stated),0.675,4.6,4.9,1.3,i,1.4%,-11.3,1.1,-39.0
Cc1ccc(OCc2cc(C(=O)NCC(C)(C)N3CCOCC3)no2)cc1C,0.689,-7.2,-5.6,-1.6,i,-5.7%,1.0,2.6,-10.1
Cc1cc(NC(=O)CC(CN(C)S(=O)(=O)c2ccccc2)c2ccccc2)no1 (configuration not stated),0.712,14.2,-9.7,-10.3,i,6.8%,-3.5,0.4,5.0
CN(Cc1ccccc1)C(=O)CCn1c(=O)oc2ccccc21,0.69,0.9,-2.9,-6.7,i,15.8%,-4.3,2.0,-2.9
Cc1cccn2c(=O)c3cc(C(=O)N4COCC4(C)C)n(Cc4ccccc4)c3nc12,0.728,7.4,-1.3,-1.3,i,.,9.6,1.1,-16.1
C=CCOc1ccc(/C=C2/C(=O)ON=C2C)cc1OCC,0.683,7.6,8.2,-0.7,i,8.3%,-1.4,5.2,20.1
Cc1nn(-c2ccccc2)c(C)c1NC(=O)COC(=O)C1CC(=O)N(CCc2ccccc2)C1 (configuration not stated),0.659,8.6,13.2,-1.4,i,-4.6%,1.4,-7.4,.
O=C(Cn1cc(COc2c(Br)cc(F)cc2Br)nn1)c1ccc(O)cc1,.,-46.6,-74.2,-16.8,i,.,-1.8,-3.4,.
Cc1noc(C)c1C(=O)N1CCCC1,0.648,.,.,.,.,5.5%,.,-0.2,6.5
Cc1ccc(S(=O)(=O)NCC2CCC(C(=O)NC3CCCCC3)CC2)cc1 (configuration not stated),0.704,8.6,5.8,3.5,i,-1.6%,4.0,1.6,2.4
CCCCn1c(N)c(N(CCOC)C(=O)C2CCN(S(=O)(=O)c3ccc(C)cc3C)CC2)c(=O)[nH]c1=O,0.625,13.7,9.3,-0.8,i,2.7%,-0.4,-1.1,24.8
CSC(SC)=C(C#N)C(=O)c1ccccc1,.,-4.2,-0.8,5.6,i,-9.0%,.,2.9,.
CCS(=O)(=O)N[C@@H]1CC[C@H](CC(=O)NCc2ccc(Cl)cc2)O[C@@H]1CO,.,0.4,15.3,0.4,i,.,-2.3,.,.
COCC(=O)Nc1ccc2c(c1)[C@@H]1C[C@@H](CC(=O)NCc3ccc(-c4ccccc4)cc3)O[C@H](CO)[C@@H]1O2,.,4.9,-21.6,13.8,i,.,0.4,.,.
CC1CC(C)CN(C(=O)c2cccc(NC(=O)CC3SC(N4CCCCC4)=NC3=O)c2)C1 (configuration not stated),0.691,-5.7,-3.8,-0.4,i,-0.1%,5.9,-1.3,-1.2

# Grouped by structure, the entries above with an aryl methoxy group
SMILES,E coli growth,Ecoli rRNA inh,Ecoli rRNA inh OD600,Ecoli rRNA inh RFP,FGF22 binding,Vif A3G,AF4-AF9 inh,HNF4A DNA FP,ALR H2O2 inh
CCC(=O)Nc1cc(-c2nnc(OC)c3ccccc23)ccc1N1CCOCC1,0.733,.,.,.,.,7.8%,.,-1.1,-2.7
COc1ccc(N2C(=O)CSC(c3ccccc3)C2=O)cc1 (configuration not stated),0.675,4.6,4.9,1.3,i,1.4%,-11.3,1.1,-39.0

# The list continues:
SMILES,E coli growth,Ecoli rRNA inh,Ecoli rRNA inh OD600,Ecoli rRNA inh RFP,FGF22 binding,Vif A3G,AF4-AF9 inh,HNF4A DNA FP,ALR H2O2 inh
C[C@H](CO)N1C[C@H](C)[C@@H](CN(C)C(=O)Nc2ccccc2)Oc2ccc(NC(=O)c3ccncc3)cc2C1=O,.,5.1&7.9,3.2&15.5,1.0&-7.0,i,.,-2.9&-7.0,1.3,.
COc1cccc(-c2ccc3c(c2)O[C@H](CN(C)C)[C@H](C)CN([C@@H](C)CO)S3(=O)=O)c1,.,3.4,16.6,-2.0,i,.,0.7,.,.
COc1cccc(-c2ncc3ccccc3c2COC(=O)N2CCCCC2)c1,0.657,-28.6,-56.2,4.0,i,.,-2.3,1.5,11.1
O=C1O[C@@H](c2ccccc2)C[C@@H](O)[C@H](O)CCCCc2ccccc21,.,-0.3,-16.0,4.5,i,.,-0.9,1.0,.
CCCn1nnc(NC(=O)c2cccnc2Cl)n1,0.708,.,.,.,.,?,.,-0.6,-13.6
COc1ccc(S(=O)(=O)Nc2ccc3c(c2)C(=O)N([C@H](C)CO)C[C@H](C)[C@H](CN(C)C(=O)Cc2ccccc2)OCCCC[C@H](C)O3)cc1,.,-4.4,-7.5,0.8,i,.,1.0,.,.
O=C(NCCCN1CCOCC1)c1nn2c(C(F)(F)F)cc(-c3ccco3)nc2c1Cl,0.706,2.0,-6.0,-1.8,i,.,1.4,4.9,-4.2
COc1ccc(CN(C)C[C@H]2Oc3ccc(NS(=O)(=O)c4cccs4)cc3CC(=O)N([C@H](C)CO)C[C@H]2C)cc1,.,-4.6,-1.8,2.9,i,.,-2.6,.,.
COc1ccc(NC(=O)N(C)C[C@H]2Oc3ccc(NC(=O)Nc4ccccc4)cc3C(=O)N([C@H](C)CO)C[C@@H]2C)cc1,.,0.1,-4.8,-0.3,i,.,0.8,.,.
CCOc1cc(/C=C/C(=O)O)ccc1OCCO,0.673,6.0,5.8,0.9,i,.,-0.4,4.4,-15.4
COc1ccc(CCC(=O)NCCS(=O)(=O)N2CCN(c3ccc(F)cc3)CC2)cc1,0.721,1.7,-7.4,0.7,i,-3.8%,-4.8,-3.6,-0.1
C[C@@H]1COc2cccc(N3CCC[C@@H]3CO)c2S(=O)(=O)N1,.,2.1,-1.4,2.6,i,.,-0.8,0.3,.
O=C(CCCCn1c(=O)c2ccccc2n(Cc2ccccc2F)c1=O)NC1CCN(Cc2ccccc2)CC1,0.676,13.9,7.2,7.5,i,-10.8%,3.5,0.1,-3.9
O=C(NCCN1CCCCC1)[C@H]1N[C@H]2c3ccc(-c4ccc(F)cc4)c(=O)n3C[C@H]2[C@@H]1CO,.,4.6,-3.0,-1.2,i,.,-5.3,.,.
COc1ccc(Nc2c3c(nc4ccccc24)CCC3)c(OC)c1,0.68,9.2,-5.1,-7.3,i,-3.7%,8.8,-5.5,98.6*
O=c1[nH]c2cc3c(cc2cc1CN(CCc1ccccc1)C(=S)NCCCN1CCOCC1)OCCO3,0.68,4.7,10.3,13.6,i,.,6.3,-1.3,.
CN1CCN(C(=S)NC(=O)c2ccco2)CC1,0.667,15.9,2.2,-1.8,i,5.8%,2.2,-0.2,-6.7
CC(C)n1cnc2c(N(C)c3cccc(Cl)c3)nc(N(CCO)CCO)nc21,0.674,-33.2*,-12.7*,-6.3*,i,32.0%,0.8,2.2,65.0
Cc1ccc(S(=O)(=O)Nc2ccc3c(c2)CC(=O)N([C@@H](C)CO)C[C@H](C)[C@H](CN(C)C(=O)Nc2ccc4c(c2)OCO4)O3)cc1,.,2.0,2.5,-1.7,i,.,0.2,.,.
Cn1c(=O)c2c(-c3ccccc3)n(-c3cc(Cl)c([N+](=O)[O-])cc3O)cc2n(C)c1=O,.,9.1,16.5,-0.4,+,.,-0.9,4.5,.
CC1=C(C#N)C(NC(=O)C2CC2)(C(F)(F)F)C(=O)N1 (configuration not stated),0.794,.,.,.,.,-3.0%,.,-3.7,-0.4
CCC(C)(C)c1ccc(OCCCC[n+]2cccc(C)c2)c(C(C)(C)CC)c1,.,-59.5,-81.6,-25.0,i,2.4%,12.5,-0.5,.
O=S1(=O)CCOC[C@H](c2ccccc2)N1Cc1cccc(Cl)c1,0.779,-21.8,-34.0,-14.9,i,.,-3.2,2.4,1.1
Cn1nc(-c2ccccc2)c2cc([N+](=O)[O-])ccc21,0.679,0.1,1.9,-0.7,i,1.9%,-2.1,2.9,-6.2
O=C(COc1nc2ccccc2nc1N1CCOCC1)Nc1ccc(S(=O)(=O)N2CCCC2)cc1,0.666,-11.3,-5.3,3.4,i,3.0%,13.2,5.5,-2.5

# Following part
SMILES,E coli growth,Ecoli rRNA inh,Ecoli rRNA inh OD600,Ecoli rRNA inh RFP,FGF22 binding,Vif A3G,AF4-AF9 inh,HNF4A DNA FP,ALR H2O2 inh
CCC(=O)N1CCN(c2ccc(NC(=O)c3ccc4c(c3)OCO4)cc2)CC1,0.677,.,.,.,.,7.2%,.,1.5,.
O=C(N/N=C\c1ccccc1)c1cccc(C(=O)N/N=C\c2ccccc2)n1,.,1.7,21.0,-0.5,i,.,2.8,1.1,6.9
O=C(c1cn(Cc2ccccc2)nc1-c1cccnc1)N1CCc2ccccc2C1,0.692,.,.,.,i,-12.6%,2.1,-0.1,-2.3
C[C@@H]1CN([C@H](C)CO)C(=O)Cc2cc(NC(=O)Cc3ccccc3)ccc2O[C@@H]1CN(C)S(=O)(=O)c1ccc(Cl)cc1,.,-2.6,-3.0,3.5,i,.,2.4,.,.
C[C@H]1CN([C@@H](C)CO)C(=O)CCCn2cc(nn2)CO[C@@H]1CN(C)S(=O)(=O)c1cccs1,.,7.9&-0.4,8.6&2.6,0.4&-0.3,i,-4.8%,-2.3&-1.9,2.6,.
COCCn1c(SCC(=O)N(C)c2ccccc2)nc2c([nH]c3ccccc32)c1=O,0.721,8.4,4.7,-2.4,i,0.6%,-1.9,-3.1,23.8
C=CCn1c(=O)c(C(=O)NCCc2ccc(Cl)cc2)c(O)c2cc(OC)c(OC)cc21,0.713,10.8,0.9,0.3,i,.,0.2,-3.0,-4.2

# Source: PubChem BioAssay (several laboratories)
